Screening results from PubChem BioAssay.
Ecoli rRNA inh = selective bacterial rRNA inhibition in E. coli; E. coli WT GFP vs humanized-ribosome RFP mutants, fluorescence, 24 h; active compounds read low; DMSO median 0, no signal -100; GFP signal change (wild-type ribosome), % (test concentration not listed); hit rate 1.6% among 350,000; AID 720706;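 active = significant combined selectivity score with lowered wild-type GFP, culture density cut under 30%, mutant RFP and density less affected; inactive = any of these conditions unmet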; also: one replicate is shown; some compounds called inactive have numbers as strong as hits
AF4-AF9 inh = blocks AF4 peptide binding to human AF9 | hit rate 0.47% among 350,000 | AlphaScreen, biotin-AF4 peptide binding to FLAG-AF9 | inhibition, % at 10 µM | AID 651704 | P42568;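 active = every replicate reaching a set inhibition limit, whatever the replicate mean, cut at about 25% in these data; inconclusive = mean inhibition reaches that limit but some replicates miss it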;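 also: 0% = plate neutral control median and 100% = total signal loss; the record names both 10 and 1 µM as test concentration; the first replicate is given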
HNF4A DNA FP = change in binding of human HNF4 alpha to DNA | P41235 | HNF4a-FITC DNA binding, fluorescence polarization, 1 h | activity change, % at 10 µM | hit rate 0.3% among 360,000 | AID 1224865; in the data active = activity change above about 30%, passing the limit was not always enough;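 also: controls were the assay level and a saturating level of protein; the project sought stronger binding though the title names inhibitors; some compounds called inactive have numbers as strong as hits; positive values seem to mean higher polarization but the record does not say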
Target sequence (P41235 whole entry, looked up): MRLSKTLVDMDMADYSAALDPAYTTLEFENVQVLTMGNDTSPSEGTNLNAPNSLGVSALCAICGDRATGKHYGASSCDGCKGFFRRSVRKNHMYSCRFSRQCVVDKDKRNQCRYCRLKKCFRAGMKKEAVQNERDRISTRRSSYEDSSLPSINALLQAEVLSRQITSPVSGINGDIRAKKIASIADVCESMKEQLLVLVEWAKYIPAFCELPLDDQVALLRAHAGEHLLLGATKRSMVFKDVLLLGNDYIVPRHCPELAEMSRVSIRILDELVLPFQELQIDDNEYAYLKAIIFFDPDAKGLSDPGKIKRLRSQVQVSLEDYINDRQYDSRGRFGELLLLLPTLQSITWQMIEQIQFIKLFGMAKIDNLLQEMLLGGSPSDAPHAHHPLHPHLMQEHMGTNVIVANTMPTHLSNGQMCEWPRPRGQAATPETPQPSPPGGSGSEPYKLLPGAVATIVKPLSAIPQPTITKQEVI
FGF22 binding = FGF22 (human) thermal shift binding. Q9HCT0. recombinant FGF22 thermal shift, SYPRO orange fluorescence; percent of sucrose octasulfate shift, DMSO zero. hit rate 1.5% among 340,000. calls only at 9.99 µM;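 active = melting point raised past a set limit in the mean and every replicate; inconclusive = no clear call; three in four hits are not shown here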
Target sequence (Q9HCT0 whole entry, looked up): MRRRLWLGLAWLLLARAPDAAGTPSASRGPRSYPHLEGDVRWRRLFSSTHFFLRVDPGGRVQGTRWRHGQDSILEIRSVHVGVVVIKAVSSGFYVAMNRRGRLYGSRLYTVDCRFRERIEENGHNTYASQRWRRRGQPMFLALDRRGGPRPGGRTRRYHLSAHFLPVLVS
ALR H2O2 inh = human ALR oxidase inhibition via reduced H2O2. P55789. purified ALR, DTT oxidation, H2O2 HRP-luminol luminescence. inhibition, % (test concentration not listed). hit rate 3.8% among 290,000;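 active = mean and each replicate at 75% or more; inconclusive = only one of the two met; inactive = neither met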;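 also: stock transfer was 7.5 nL into about 7.5 µL; 0% = neutral wells and 100% = wells with inactivated enzyme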
Target sequence (P55789 whole entry, looked up): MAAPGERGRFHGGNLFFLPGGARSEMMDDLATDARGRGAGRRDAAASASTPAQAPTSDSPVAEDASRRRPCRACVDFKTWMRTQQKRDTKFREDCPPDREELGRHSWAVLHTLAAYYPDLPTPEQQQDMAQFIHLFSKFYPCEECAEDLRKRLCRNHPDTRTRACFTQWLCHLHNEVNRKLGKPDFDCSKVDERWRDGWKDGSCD
Ecoli growth = E. coli growth inhibition | Escherichia coli growth, OD600, 23 h; active compounds read low | OD600 absorbance (no concentration beside the values) | hit rate 0.21% among 330,000 | AID 1053175;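 active = OD600 absorbance below the run mean of sample wells minus 3.6 SD, in any replicate, cut at about 0.56 in these data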;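 also: stock transfer was 300 nL into about 60 µL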
Vif TR-FRET = inhibitors of Vif binding to APOBEC3G peptide, primary screen, biochemical, TR-FRET, GST-Vif 1-94, biotin-A3G peptide, dose response retest (AID 1117319); TR-FRET GST-Vif / biotin-A3G peptide binding; higher % means a stronger effect; test concentration not given here; strong numbers were not always called active; inhibition, %; hits with a dose series show IC50 in µM; hit rate 0.57% among 260,000;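 active = above the screen mean plus three standard deviations and confirmed in dose response; inconclusive = results disagree or hit not tested in dose response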;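 also: Vif residues 1-94 fused to GST binding biotinylated APOBEC3G peptide 110-148; 0% = full assay without inhibitor and 100% = GST in place of GST-Vif; retest series ran down from 100 µM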
Ecoli rRNA inh OD600 = recorded beside Ecoli rRNA inh, whose call it bears; OD600 change, %; measured here: OD600 growth;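 optical density of the mix in the first replicate; 0 = DMSO median and -100 = no signal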
Ecoli rRNA inh RFP = recorded beside Ecoli rRNA inh, whose call it bears; RFP signal change, %; measured here: RFP humanized mutant strains;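 first replicate; 0 = DMSO median and -100 = no signal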
Active calls of the source: *; i = inactive; ? = inconclusive; . = no result given.

SMILES	Ecoli rRNA inh	Ecoli rRNA inh OD600	Ecoli rRNA inh RFP	AF4-AF9 inh	HNF4A DNA FP	FGF22 binding	ALR H2O2 inh	Ecoli growth	Vif TR-FRET
Cc1cc(Cl)c(OCCOCCN2CCCCC2)c(Br)c1	2.7	-9.0	-1.9	4.2	4.1	i	.	0.674	-5.9%
Cc1cc(C(=O)Cn2cnc3cc([N+](=O)[O-])ccc3c2=O)c(C)n1CC1CCCO1 (centres undefined)	15.2	17.3	-2.7	0.9	-2.0	i	-26.7	0.62	-1.6%
CCCCN1Cc2c(nc3cc(-c4ccccc4)[nH]n3c2=O)C1=O	-12.0	-3.2	4.2	-3.5	-0.4	i	.	0.661	?
COc1ccc(NC(=O)CSc2nnc(Cc3ccccc3)c(=O)n2N)cc1OC	-2.8	1.6	1.2	-1.0	-5.0	i	93.1*	0.695	-0.1%
CCOc1ccc2nc(C)cc(Nc3ccc(N4CCOCC4)cc3)c2c1	.	.	.	.	.	.	-3.3	0.691	?
CC(C)c1ccc(C(=O)OCC(=O)NC2CCCC2)cc1	-3.2	-0.6	0.7	-1.3	2.0	i	.	0.673	-1.8%
CC(C)n1nc(CC(=O)O)c2ccccc2c1=O	3.2	13.4	0.2	-1.2	-3.1	i	-2.5	0.737	.
O=C(OCc1ccccc1Cl)c1ccccc1C(=O)c1ccccc1	.	.	.	.	-1.9	.	-2.0	0.731	3.7%
O=C(Nc1ccc2c(c1)ncn2-c1ccccc1)c1ccco1	.	.	.	.	-3.5	.	-26.8	0.649	1.8%
CCOC(CNC(=O)c1ccc(CNC(=O)c2ccc(OC)c(OC)c2)cc1)OCC	3.9	3.9	-1.1	-1.0	-2.4	i	-11.9	0.686	-5.5%
Cc1cc(NC(=O)CSCC(=O)N2CCN(c3cccc(C)c3C)CC2)no1	-13.2	-14.2	1.7	0.5	2.6	i	-2.3	0.695	3.1%
O=C(O)CN=C(NS(=O)(=O)c1ccc(Cl)cc1)c1ccccc1	.	.	.	.	3.7	.	-3.4	0.684	6.9%
COc1ccc(OC)c(NC(=O)C2(C)CCN2C(=O)C2(c3ccccc3)CCCC2)c1 (centres undefined)	-3.9	-21.8	1.0	6.8	-1.6	i	.	.	.
COc1ccccc1-c1noc(CCCC(=O)Nc2ccc(C(N)=O)cc2)n1	11.2	0.4	-0.5	0.6	-1.5	i	5.4	0.641	-4.2%
O=C(NC(=S)Nc1ccc(Cl)c(C(=O)O)c1)c1cncc(Br)c1	4.4	9.9	-1.5	-0.8	1.3	i	22.1	0.7	-3.5%
CCN1C(=O)[C@@H]2[C@@H](c3ccc(-c4ccc(F)cc4)cc3)N3CCCC[C@@]3(C(=O)OC)[C@@H]2C1=O	2.9	0.0	10.1	1.0	-2.6	i	-2.5	.	.
O=Nc1c(-c2cccc([N+](=O)[O-])c2)nc2ncccn12	-3.6	-7.2	1.0	0.5	-5.3	i	.	.	.
COc1ccc(-c2cc(=O)oc3cc(O)ccc23)cc1	-5.0	-4.4	1.6	0.2	5.1	i	1.0	0.676	5.2%
COc1ccc(N2CC(C(=O)OCC(=O)c3ccc(C)cc3)CC2=O)cc1 (centres undefined)	-1.3	-0.8	-1.5	3.0	4.5	i	0.7	0.704	.
Fc1ccc(-c2ccc(-c3nn4c(-c5ccco5)nnc4s3)o2)cc1	.	.	.	.	-0.7	.	98.5*	0.746	-0.2%
Cn1c(=O)c(C(=O)CN2CCCCC2)c(N)n(Cc2ccccc2)c1=O	8.8	9.0	1.8	-15.8	1.3	i	-7.4	0.696	6.5%
COc1ccc(C(=O)N(c2ccccc2)c2nccc3ccccc23)cc1OC	-18.5*	0.3*	5.1*	-0.4	1.2	i	.	.	-2.4%
COC(=O)c1cccc(NC(=O)c2cccnc2)c1	.	.	.	.	0.1	.	-2.2	0.715	-1.9%
COc1ccc(N2C(=O)C(Cl)=C(Oc3cccc(OC)c3)C2=O)cc1	.	.	.	.	-3.2	.	7.3	0.737	17.0%
O=C(Cn1nnc(-c2cccs2)n1)NNC(=O)c1ccccc1Cl	.	.	.	0.5	3.1	i	-4.0	0.612	.
Cc1cccc(S(=O)(=O)N[C@H]2CC[C@H](CCNC(=O)Nc3cc(F)ccc3F)O[C@H]2CO)c1	-4.4	-16.7	0.0	2.6	.	i	.	.	.
C=CCn1nc2n(c1=O)-c1ccccc1SC2	3.6	-9.6	-1.9	0.6	-2.2	i	-4.6	0.679	3.7%
COc1ccc(CNC(=O)C2Cc3cc(S(=O)(=O)N4CCCC4)ccc3N2C(C)=O)c(OC)c1 (centres undefined)	10.4	14.4	0.4	2.4	-0.4	i	3.9	0.713	.
CCO[C@H]1OC(C(=O)NC2CC2)=C[C@@H](C2CC2)[C@@H]1CCCO	13.9	9.3	0.4	.	0.6	i	.	.	21.8%
O=C(COc1ccccc1)NC(=S)Nc1cccc(NC(=O)c2ccccc2Cl)c1	.	.	.	.	-1.9	.	0.0	0.718	-7.1%
Cc1nnc(SCC(=O)N(C(C)C)C(C)C)[nH]c1=O	13.2	8.9	-1.3	-2.0	5.4	i	-8.4	0.646	.
N#Cc1ccc(S(=O)(=O)NCC(=O)OCC(=O)NCCc2ccccc2)cc1	9.7	17.8	1.8	0.5	-4.8	i	-3.5	0.725	.
CCNC(=O)C[C@@H]1CC[C@@H]2[C@@H](COc3ccc(NS(C)(=O)=O)cc3C(=O)N2C)O1	3.1	2.2	-1.2	-1.9	.	i	.	.	.
O=C(COC(=O)/C=C/c1cccc(Cl)c1Cl)Nc1ccc2[nH]c(=O)[nH]c2c1	-4.3	-2.3	-0.5	-14.5	0.8	i	-5.6	0.724	.
O=C(CSCc1c(Cl)cccc1Cl)Nc1ccc2c(c1)OCCO2	.	.	.	.	-1.8	.	-9.0	0.673	-6.1%
COc1ccc(N2CCC(CNC(=S)Nc3ccc(C)cc3C)C2)cc1 (centres undefined)	-3.9	-5.7	9.5	?	3.3	i	60.5	0.671	.
O=C(N/N=C/C(Br)=C/c1ccccc1)c1cccnc1	-6.2	1.6	-5.0	2.3	5.0	i	-8.5	.	?
O=C1CCc2cc(NS(=O)(=O)c3ccccc3)cc3c2N1CCC3	-1.5	-12.8	0.7	-0.2	-2.4	i	4.2	0.617	6.2%
Cc1cccc(NC(=O)CN2CCN(C(=O)c3ccc(OCc4cn5ccccc5n4)cc3)CC2)c1C	-0.2	-23.5	1.0	-10.1	-3.2	i	-4.1	0.7	-1.7%
COc1ccc(CN2C(=O)CSCC2(C)C(=O)Nc2c(C)cccc2C)cc1OC (centres undefined)	6.5	-2.8	-1.9	.	3.2	i	.	.	.
COc1cc(CN(C(=S)NCC(=O)O)C2CCCC2)cc(OC)c1OC	-0.7	5.6	-17.3	-3.9	2.1	i	.	0.664	.
COc1ccc2[nH]c(C)c(CCNC(=S)Nc3cc(C)ccc3C)c2c1	-1.2	-1.8	1.8	4.9	3.2	i	13.5	0.75	17.2%
Cc1ccc(S(=O)(=O)Nc2cccc(C(=O)NCC(c3ccco3)N3CCCC3)c2)cc1F (centres undefined)	-0.8	-1.9	1.6	0.4	3.1	i	-0.2	0.668	-3.9%
CC[C@@H](C)[C@H](CN[C@H](CNC)C(C)C)NC[C@@H](C)c1ccc(CC(C)C)cc1	-39.3	-44.4	-7.8	9.2	5.4	i	.	.	.
Cc1cccc(OC(=O)NCCOC(=O)N(O)c2ccc(Cl)cc2)c1	-11.4	-11.8	-7.2	0.4	1.6	i	2.9	0.675	.
C[C@H](CO)N1C[C@H](C)[C@@H](CN(C)C(=O)Nc2ccc(F)cc2)OCCCC[C@H](C)Oc2ccc(NC(=O)C3CCCCC3)cc2C1=O	-4.7	4.2	0.7	-1.9	.	i	.	.	.
CCOC(=O)C(Cc1c(F)cccc1Cl)c1ccnc2nc(N)nn12 (centres undefined)	15.5	6.4	-0.5	10.4	-0.1	.	-2.3	0.626	-8.3%
COc1ccc(CNC(=O)Cn2cnc3c(NCc4ccccc4)ncnc32)cc1	6.6	-0.1	3.0	-3.4	0.6	i	.	0.703	-0.5%
CC(=O)Nc1ccc(S(=O)(=O)N2CCC(C(N)=O)(N3CCCCC3)CC2)cc1	7.4	12.0	-0.2	-21.3	0.7	i	-1.2	0.677	.
COC(c1ccccc1)(c1ccccc1)C(Oc1nccc(C)n1)C(=O)O (centres undefined)	4.1	9.6	0.4	-3.3	1.3	i	.	0.642	-2.7%
CCCC(=O)Nc1ccc(Cl)c(NC(=O)C(C)(C)C)c1	.	.	.	.	0.9	.	-40.2	0.674	0.9%
Cc1cc(=O)oc2cc(OCC(=O)N3CCN(c4ccccc4)CC3)c(Cl)cc12	20.2	26.3	2.6	1.3	0.2	i	1.8	0.672	.
CSc1ccc(NC(=O)Nc2cccn(Cc3ccccc3F)c2=O)cc1	-22.4	-24.6	-3.7	1.8	0.9	i	.	0.647	-3.8%
Cc1noc(C)c1NC(=O)N[C@H]1CC[C@H](CC(=O)NCc2ccc(Cl)c(Cl)c2)O[C@H]1CO	-0.2	-2.3	-0.1	1.7	.	i	.	.	.
COc1ccc(-c2noc(CCCC(=O)N3CCN(c4cc(C)ccc4C)CC3)n2)cc1	-1.0	-5.7	1.2	-1.4	2.5	i	.	0.733	-4.1%
CC(C)(C)c1nnc(NC(=O)c2cc(-c3ccccc3)nc3ccccc23)s1	.	.	.	.	3.6	.	2.9	0.711	-4.9%
COc1cc(NC(=S)NC(C)(C)C)c(OC)cc1Cl	4.5	4.5	-7.0	0.9	-1.2	i	-14.4	.	.
O=C(C[C@@H]1CC[C@H](NC(=O)Nc2ccccc2F)[C@H](CO)O1)NCc1ccc(Cl)cc1	-4.4	-8.6	0.8	1.2	.	i	.	.	.
O=S1(=O)CC(O)C(N(CCO)C(=S)Nc2ccccc2)C1 (centres undefined)	1.0	-5.4	-4.4	3.5	-3.5	i	-3.5	0.622	17.0%
O=S(=O)(c1ccccc1)C1Cc2ccccc2C1Cl (centres undefined)	3.0	5.8	0.0	0.8	1.0	i	-0.7	0.649	.

The listing continues.
SMILES	Ecoli rRNA inh	Ecoli rRNA inh OD600	Ecoli rRNA inh RFP	AF4-AF9 inh	HNF4A DNA FP	FGF22 binding	ALR H2O2 inh	Ecoli growth	Vif TR-FRET
COCC(=O)Nc1ccc2c(c1)[C@H]1C[C@H](CC(=O)N[C@@H](C)c3ccccc3)O[C@@H](CO)[C@H]1O2	0.2	18.4	0.3	0.1	.	i	.	.	.
O=S(=O)(c1ccccc1)N1C[C@H]2[C@@H](c3ccccc31)[C@@H](CO)N2Cc1ccccc1	-49.1*	-23.8*	13.5*	-0.9	.	i	.	.	.
Cc1ccc(S(=O)(=O)N(C)C[C@@H]2OCCCC[C@H](C)Oc3ccc(NC(=O)c4ccccc4)cc3C(=O)N([C@@H](C)CO)C[C@H]2C)cc1	0.0	0.1	1.7	-1.3	.	i	.	.	.
Cc1cc(=O)oc2cc(OCC3CC(c4ccc(Br)cc4)=NO3)ccc12 (centres undefined)	5.5	4.3	-4.3	2.1	-2.0	i	-5.5	0.691	-7.6%
COc1cc2nc(CN(C)Cc3ccc(C(C)(C)C)cc3)[nH]c(=O)c2cc1OC	8.3	1.3	-2.9	-0.5	2.3	i	1.4	0.611	.
CCC(C)(C)NC(=O)C(c1cccn1C)N(Cc1ccc(OC)cc1)C(=O)Cn1nnc2ccccc21 (centres undefined)	.	.	.	.	0.8	.	0.2	0.745	-7.4%

Some of the compounds tested; count on the stated rates, not on these rows.
